Mtb betalactam = beta-lactam sensitization of Mtb H37Rv; M. tuberculosis H37Rv growth with meropenem, percent inhibition; hits of this screen are not shown here; inhibition, % at 25 µM; actives 0.27% (n = 330,000); AID 434955;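 active = about 74% or more and at least 40 points above the plate without the antibiotic, then above 30% in a dose series; inconclusive = first-round hits that could not be retested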;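 also: growth measured after seven days incubation then overnight dye step; 0% = bacteria only wells and 100% = bacteria with antibiotic; twin plates without the antibiotic show which effects depend on it; some results filed as inactive read as strong as hits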
* marks the source's active call; other numbers are inactive results. The list is partial; the hit share may differ from the screen's.

Screening CCN(C[C@H]1N[C@@](C)(C(=O)OC)[C@H]2C(=O)N(Cc3ccccc3)C(=O)[C@@H]12)C(=O)NC(C)C returned Mtb betalactam -3.
CC[C@]12c3[nH]c4ccccc4c3CCN1C(=O)C(CC(=O)NCc1ccco1)C[C@@H]2C(=O)N1CCN(C(=O)c2ccco2)CC1 (stereo not given in full) was read as Mtb betalactam -2.
For CCCc1cc(=O)[nH]c(SCC(=O)Nc2sc(C(N)=O)c(C)c2C(=O)OCCOC)n1 the results were Mtb betalactam -7.
For CCOC(=O)c1c(C)[nH]c(C)c1C(=O)COC(=O)c1cccnc1OCC the results were Mtb betalactam 4.
`C[C@H](CO)N1C[C@H](C)[C@@H](CN(C)S(=O)(=O)c2ccc(F)cc2)Oc2c(NS(=O)(=O)c3ccc(F)cc3)cccc2C1=O` gave Mtb betalactam -1.
Screening Cc1cc(NS(=O)(=O)c2ccc(NC(=O)CNS(=O)(=O)c3ccccc3)cc2)nc(C)n1 returned Mtb betalactam 1.
Screening COc1ccc(C)cc1-n1c(SCC(=O)NC2CC2)nc2ccccc2c1=O returned Mtb betalactam -2.
`Cc1nc(C)c(C(=O)OCC(=O)Nc2ccccc2SCC#N)s1` gave Mtb betalactam -1.
For COc1ccc(NS(=O)(=O)c2cc(C(=O)NNC(=O)c3ccncc3)ccc2OC)c(OC)c1 the results were Mtb betalactam -6.
For CCN(C(=O)c1ccc(=O)[nH]c1)c1c(N)n(Cc2ccccc2)c(=O)[nH]c1=O the results were Mtb betalactam -4.
For Cc1ccc(OCC(=O)N(C)C2CCCCC2)c([N+](=O)[O-])n1 the results were Mtb betalactam -7.
Screening CCOc1cc(/C=C(\C#N)C(=O)Nc2cccc(C(=O)O)c2)ccc1OCc1ccccc1Cl returned Mtb betalactam 4.
`CC(=O)c1c(C)[nH]c(C(=O)OCC(=O)N2CCCC2=O)c1C` gave Mtb betalactam -1.
`Cc1cc(Cn2nc(C(=O)NCc3cccc(C(F)(F)F)c3)cc2-c2ccccc2)on1` gave Mtb betalactam 52.
O=C(NC1CCCC1)c1cccc2c1C(=O)c1ccc(Cl)cc1S2(=O)=O was read as Mtb betalactam 2.
For Cc1cc(OCC(=O)Nc2ccccc2C)no1 the results were Mtb betalactam -7.
Screening COc1ccccc1C(CNC(=O)c1oc2ccccc2c1C)N1CCCC1 (stereo not given) returned Mtb betalactam -2.
Cc1c(C(=O)Nc2nccs2)oc2ccc(Br)cc12 was read as Mtb betalactam 3.
For Cc1cc(C)cc(NC(=O)CCNC(=O)N2C[C@H]3C[C@@H](C2)c2cccc(=O)n2C3)c1 the results were Mtb betalactam -11.
Screening COc1cccc(NC(=O)COC(=O)/C=C/c2ccco2)c1 returned Mtb betalactam 67.
`COc1ccc(NC(C)=O)cc1S(=O)(=O)Nc1ccc(S(=O)(=O)N2CCCCC2)cc1` gave Mtb betalactam -4.
For O=C(OCC(=O)N1CCN(S(=O)(=O)c2ccccc2)CC1)C1CCC1 the results were Mtb betalactam -1.
For Cc1cc(C)n2nc(SCC(=O)N3CCCC3)nc2n1 the results were Mtb betalactam -9.
O=C(CSc1nnc(-c2ccc3c(c2)OCO3)o1)Nc1c(F)cccc1F was read as Mtb betalactam 1.
CC(=O)N1CCN(C(=O)c2ccc(Cl)c(S(=O)(=O)N3CCCCCC3)c2)CC1 was read as Mtb betalactam -1.
`COc1cc2cc(CCOC(=O)c3ccco3)oc(=O)c2cc1OC` gave Mtb betalactam 1.
For C=CCNc1oc(-c2cccc(Cl)c2)nc1C#N the results were Mtb betalactam 60.
`CC(NC(=O)CCCc1ccccc1)c1ccncc1` (stereo not given) gave Mtb betalactam -3.
Cc1ccc(S(=O)(=O)Nc2ccccc2C(=O)N2CCCCC2C)c(C)c1NS(C)(=O)=O (stereo not given) was read as Mtb betalactam -3.
For Cc1ccc(/C=N\NC(=O)CC(=O)NCCc2ccccc2)cc1 the results were Mtb betalactam -12.
`Cc1cc(C)c(S(=O)(=O)N2CCN(c3ccccc3)CC2)c(C)c1` gave Mtb betalactam -6.
For COc1cccc(NC(=O)c2ccccc2NC(=O)c2ccncc2)c1 the results were Mtb betalactam 9.
`COc1ccc(/C=N/NC(=O)c2ccc3c(c2)OCCO3)c(OC)c1` gave Mtb betalactam inconclusive.
`COCCn1c(C)cc(C(=O)COC(=O)c2[nH]c(C)c(C(C)=O)c2C)c1C` gave Mtb betalactam 9.
For Nc1nc(N)nc(-c2cc([N+](=O)[O-])ccc2O)n1 the results were Mtb betalactam -10.
Screening CCCCN1C(=O)C(=O)N(CC(=O)Nc2ccc(C(N)=O)cc2)C1=O returned Mtb betalactam 5.
`COc1ccc(S(N)(=O)=O)cc1C(=O)OCC(=O)Nc1sccc1C#N` gave Mtb betalactam 2.
Screening O=C(N[C@@H](Cc1ccccc1)C(=O)OCc1ccccc1)c1ccco1 returned Mtb betalactam 60.
Screening CC(=O)NCc1ccc(-c2csc(NC(=O)CCCc3nc4ccccc4c(=O)[nH]3)n2)cc1 returned Mtb betalactam 4.
CCOc1ccc(S(=O)(=O)Nc2c(C)n(C)n(-c3ccccc3)c2=O)cc1 was read as Mtb betalactam -11.

Copied from above (two entries):
`Cc1cc(C)c(S(=O)(=O)N2CCN(c3ccccc3)CC2)c(C)c1` gave Mtb betalactam -6.
For COc1cccc(NC(=O)c2ccccc2NC(=O)c2ccncc2)c1 the results were Mtb betalactam 9.

(next part)
C[C@@H]1CN([C@@H](C)CO)C(=O)Cc2cc(NC(=O)Nc3ccc(F)cc3)ccc2O[C@@H]1CN(C)Cc1ccc(Cl)c(Cl)c1 was read as Mtb betalactam 47.
`O=C(Nc1ccccc1C(F)(F)F)C(O)(c1ccccc1)C1CCCCC1` (stereo not given) gave Mtb betalactam 0.
`Cc1ccc(C(=O)COC(=O)COc2ccccc2C)cc1` gave Mtb betalactam 9.
Screening Cc1ccc(S(=O)(=O)N2[C@@H](c3ccc(Br)cc3)C(C(=O)O)=C[C@H]2C(C)(C)C)cc1 returned Mtb betalactam 0.
Screening CC(C)n1c(SCC(=O)N2CCCCC2)nc2c1c(=O)n(C)c(=O)n2C returned Mtb betalactam 0.
Screening O=C(COC(=O)C12CC3CC(CC(C3)C1)C2)NNC(=O)c1ccccc1 returned Mtb betalactam -6.
`COc1ccc(S(=O)(=O)N2CCOCC2)cc1NC(=O)CN(C)CC(=O)Nc1cccc(F)c1` gave Mtb betalactam -5.
`CC(=O)Nc1ccc(NC(=O)[C@@H](NC(=O)N2C[C@H]3C[C@@H](C2)c2cccc(=O)n2C3)C(C)C)cc1` gave Mtb betalactam -8.
Screening CCC1CCc2sc(C(=O)NCC(c3ccc(OC)cc3)N3CCOCC3)cc2C1 (stereo not given) returned Mtb betalactam 59.
`Cc1ccccc1-c1cc(C(=O)O)n(CC2CC(c3cccnc3)=NO2)n1` (stereo not given) gave Mtb betalactam 2.
Screening Cc1cccc(NC(=O)c2ccc(Cl)c(S(=O)(=O)N3CCCCCC3)c2)n1 returned Mtb betalactam -5.
Screening COc1cccc(CNC(=O)c2cc(C3CC3)nc3c2cnn3C(C)C)c1 returned Mtb betalactam 10.
For COc1ccc(F)c(-c2nc(CN3CCN(C(=O)c4ccco4)CC3)c(C)o2)c1 the results were Mtb betalactam inconclusive.
CC[C@@]1(C(=O)OC)N[C@H](CN(C)C(=O)Nc2ccc(OC)cc2)[C@@H]2C(=O)N(Cc3ccccc3)C(=O)[C@@H]21 was read as Mtb betalactam -1.
`Cc1cccc(-n2nnnc2SCC(=O)NCC2(N3CCOCC3)CCCCC2)c1C` gave Mtb betalactam -5.
For COc1cc(/C=C/C(=O)OCC(=O)N2c3ccccc3CC2C)cc(OC)c1OC (stereo not given) the results were Mtb betalactam 4.
O=C(c1ccc(-n2cncn2)c([N+](=O)[O-])c1)N1CCN(S(=O)(=O)c2ccc(Br)cc2)CC1 was read as Mtb betalactam -2.
`NC(=O)c1ccc(NC(=O)CSc2nnc(-c3ccc4c(c3)OCO4)o2)cc1` gave Mtb betalactam -2.
`CCN(C(=O)CSc1nc2ccccc2[nH]1)C1CCS(=O)(=O)C1` (stereo not given) gave Mtb betalactam -5.
Screening O=C(C1CCN(S(=O)(=O)c2cccs2)CC1)N1CCN(c2ccccc2O)CC1 returned Mtb betalactam -1.
Screening COc1cccc(CN(C)C(=O)C2CCN(S(=O)(=O)c3ccc(C)cc3)CC2)c1OC returned Mtb betalactam 1.
`O=C(c1cccc(S(=O)(=O)NCc2ccc3c(c2)OCO3)c1)N1CCCC1` gave Mtb betalactam 1.
Cc1cc(OC(C)C(=O)NCC2CCC(C(=O)O)CC2)c2c(C)cc(=O)oc2c1 (stereo not given) was read as Mtb betalactam -5.
CC(=O)c1cccc(NC(=O)CSc2nnc(-c3ccncc3)o2)c1 was read as Mtb betalactam 3.
For O=C(NCc1cc(C(F)(F)F)ccc1Cl)c1cccc2c1C(=O)c1ccc(N3CCC(Cc4ccccc4)CC3)cc1S2(=O)=O the results were Mtb betalactam -4.
O=C(COC(=O)C12CC3CC(CC(Br)(C3)C1)C2)Nc1c(F)cccc1F was read as Mtb betalactam 3.
O=C(COC(=O)/C=C/c1ccccc1[N+](=O)[O-])Nc1ccc(S(=O)(=O)N2CCOCC2)cc1 was read as Mtb betalactam 5.
COc1ccc2nc(SCC(=O)NC3CCCCC3C)[nH]c2c1 (stereo not given) was read as Mtb betalactam -1.
C=CCOc1cccc(/C=N/NC(=O)CC(=O)NC2CCCCC2)c1 was read as Mtb betalactam inconclusive.
For Cc1cccc(N(Cc2ccccc2)C(=O)C2CCN(C(=O)c3ccccc3C)CC2)c1 the results were Mtb betalactam -7.
Cc1cc(F)ccc1S(=O)(=O)Nc1ccccc1C(=O)N1CCCC1 was read as Mtb betalactam 1.
`O=C(NCc1ccccc1Br)c1cccc2c1C(=O)c1ccc(-c3ccc(OC(F)(F)F)cc3)cc1S2(=O)=O` gave Mtb betalactam 4.
`O=C(CC1SC(N2CCCCC2)=NC1=O)Nc1ccc(C(=O)O)cc1` (stereo not given) gave Mtb betalactam 3.
`OCC[C@H]1C[C@@H](O)[C@H](O)[C@]2(CCCc3ccccc3O2)O1` gave Mtb betalactam -7.
Screening COc1cc(OC)cc(C(=O)NNC(=O)CCC(=O)c2cc(C)sc2C)c1 returned Mtb betalactam -3.
For COc1ccc(CCNC(=O)C2CCCN(c3nc4ccccc4s3)C2)cc1OC (stereo not given) the results were Mtb betalactam -21.
`N#Cc1ccccc1OCC(=O)OCC(=O)NC1CCCC1` gave Mtb betalactam -1.
`C[C@H](CO)N1C[C@H](C)[C@@H](CN(C)C(=O)NC2CCCCC2)Oc2c(NC(=O)Nc3ccccc3)cccc2C1=O` gave Mtb betalactam -7.
For CN(C)c1cccc(C(=O)NNC(=O)C23CC4CC(CC(C4)C2)C3)c1 the results were Mtb betalactam 5.
CCCCn1c(=O)[nH]c(=O)c2c1nc(-c1ccccn1)n2CC was read as Mtb betalactam -7.
Screening Cc1cc(C)cc(NC(=O)CSc2nnc(CNC(=O)c3ccco3)n2C)c1 returned Mtb betalactam -2.
`COc1cc2cnc(-c3ccccc3F)cc2cc1OC` gave Mtb betalactam 26.
For O=C(CSc1nnc(Nc2ccccc2)s1)NC1CCS(=O)(=O)C1 (stereo not given) the results were Mtb betalactam 3.
Screening O=C(c1cccc(S(=O)(=O)NCc2ccccc2)c1)N1CCN(c2ccccc2)CC1 returned Mtb betalactam -11.
COC(=O)C1=C(c2ccccc2OCc2ccccc2)C[C@@H]2CC[C@H]1N2C(=O)NCc1ccc(N(C)C)cc1 was read as Mtb betalactam 15.
Screening COc1cccc(N2CCN(c3ccc(S(=O)(=O)N4CCN(C)CC4)cc3[N+](=O)[O-])CC2)c1 returned Mtb betalactam -2.
`CN(C)C1=NCCN1CCc1ccc(F)cc1` gave Mtb betalactam 1.
Screening Cc1ccc(S(=O)(=O)N(C)CC(=O)OCC(=O)NCCc2ccc(S(N)(=O)=O)cc2)cc1 returned Mtb betalactam -3.
For C=CC[C@@H](Cc1ccc(F)cc1)C(=O)OC[C@@H]1CCCN1C(=O)[C@H](CC=C)CC(=O)N(CCO)Cc1ccccc1 the results were Mtb betalactam 2.
For COc1ccc(S(=O)(=O)N2CCCCC2)cc1NC(=O)Cc1cccs1 the results were Mtb betalactam -2.
`O=C(C[C@H]1C/C=C/CC[C@@H](Cc2ccc(F)cc2)C(=O)O[C@@H](c2ccccc2)CNC1=O)NCCO` gave Mtb betalactam -8.
Screening COc1ccc(C(=O)OCC(=O)N2CCc3ccccc3C2)cc1OC returned Mtb betalactam -3.
Screening O=C(CN1CCN(S(=O)(=O)c2ccc(F)cc2)CC1)NCC1(N2CCOCC2)CCCCC1 returned Mtb betalactam 5.

Structures listed so far with two or more sulfur atoms (twelve):
For CCCc1cc(=O)[nH]c(SCC(=O)Nc2sc(C(N)=O)c(C)c2C(=O)OCCOC)n1 the results were Mtb betalactam -7.
`C[C@H](CO)N1C[C@H](C)[C@@H](CN(C)S(=O)(=O)c2ccc(F)cc2)Oc2c(NS(=O)(=O)c3ccc(F)cc3)cccc2C1=O` gave Mtb betalactam -1.
Screening Cc1cc(NS(=O)(=O)c2ccc(NC(=O)CNS(=O)(=O)c3ccccc3)cc2)nc(C)n1 returned Mtb betalactam 1.
`Cc1nc(C)c(C(=O)OCC(=O)Nc2ccccc2SCC#N)s1` gave Mtb betalactam -1.
`COc1ccc(NC(C)=O)cc1S(=O)(=O)Nc1ccc(S(=O)(=O)N2CCCCC2)cc1` gave Mtb betalactam -4.
Cc1ccc(S(=O)(=O)Nc2ccccc2C(=O)N2CCCCC2C)c(C)c1NS(C)(=O)=O (stereo not given) was read as Mtb betalactam -3.
`COc1ccc(S(N)(=O)=O)cc1C(=O)OCC(=O)Nc1sccc1C#N` gave Mtb betalactam 2.
`CCN(C(=O)CSc1nc2ccccc2[nH]1)C1CCS(=O)(=O)C1` (stereo not given) gave Mtb betalactam -5.
Screening O=C(C1CCN(S(=O)(=O)c2cccs2)CC1)N1CCN(c2ccccc2O)CC1 returned Mtb betalactam -1.
For O=C(CSc1nnc(Nc2ccccc2)s1)NC1CCS(=O)(=O)C1 (stereo not given) the results were Mtb betalactam 3.
Screening Cc1ccc(S(=O)(=O)N(C)CC(=O)OCC(=O)NCCc2ccc(S(N)(=O)=O)cc2)cc1 returned Mtb betalactam -3.
For COc1ccc(S(=O)(=O)N2CCCCC2)cc1NC(=O)Cc1cccs1 the results were Mtb betalactam -2.

From PubChem BioAssay
